HSD17B inhib: inhibitors of human HSD17B10 dehydrogenase; AID 893; 7.6% of 75,000 active; Potency, µM (titrated, usually from 57.1 µM), for the others: top-dose activity change, negative = inhibition, most hits filed as inhibitors; recombinant HSD17B10, NADH fluorescence kinetic; many of its hits are not listed in these tables; Q99714; active = well fitted inhibition curve with a large enough effect; inconclusive = small, poorly fitted or top-dose-only effect; inactive = no such curve, though single readings can be large or run the other way;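 note: the protocol describes HADH2 (HSD17B10) and not the HSD17B4 of the title; nearly all actives have a fitted effect of over 70% in size; most hits overshoot -100% by far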
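Activity followed as NADH fluorescence increase (ex 360, em 450 nm) every 30 seconds for 4 min, using final 90 uM beta-hydroxybutyryl CoA and 1 mM NAD+. Recombinant His-tagged enzyme, 20 nM, pH 9.0 Tris buffer, 15 min compound preincubation.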
* = called active by the depositor; u = inconclusive; [ ] = another dose, or the depositor's remark. % is set by controls: 0 for no effect and ±100 for the full control effect; potency is the fitted concentration of half-maximal effect. The list is partial, so the mix of outcomes need not match the whole.

The opening three entries (preview)
structure	HSD17B inhib
CCOC(=O)C1=C(NC#N)OC(C)=C(C)C1c1ccc(O)cc1 (stereo not drawn)	-32.0%
COC(=O)c1c(N)sc(C(=O)N2CCOCC2)c1C	-1.0%
Cc1ccc(-c2nc(C)sc2CC(=O)NCc2ccco2)cc1	u

This part in full, from the first entry:
structure	HSD17B inhib
CCOC(=O)C1=C(NC#N)OC(C)=C(C)C1c1ccc(O)cc1 (stereo not drawn)	-32.0%
COC(=O)c1c(N)sc(C(=O)N2CCOCC2)c1C	-1.0%
Cc1ccc(-c2nc(C)sc2CC(=O)NCc2ccco2)cc1	u
CCCc1nc(SCC(N)=O)[nH]c(=O)c1CC	7.0%
COc1ccc(OC)c(NC(=O)CSc2nnc(N)s2)c1	-2.4%
Cc1nc(NC(=O)c2ccc(Br)s2)sc1C(=O)N(C)C	-7.8%
O=C(NC(Cc1ccccc1)C(=O)O)c1ccc(S(=O)(=O)N2CCOCC2)cc1 (stereo not drawn)	-13.0%
O=C(CCc1ccc(O)cc1)c1c(O)cc(O)cc1O[C@H]1OC(CO)C(O)C(O)C1O (stereo partly drawn)	u
O=C(NCc1cccnc1)c1noc2c1CCCC2	5.6%
COCCCNC(=O)Cn1nnc(-c2ccc(NC(=O)c3ccc(F)cc3)cc2)n1	u
Cc1nc2cc(S(=O)(=O)C(F)(F)F)ccc2s1	-3.7%
Cc1cnc(NC(=O)CN2C(=O)C3CC=CCC3C2=O)s1 (stereo not drawn)	7.9%
COC(=O)CNc1nc(OC)nc(N(C)C)n1	6.9%
Cc1nn(C)cc1CNC(=O)c1cc2n(n1)C(C(F)(F)F)CC(c1cccs1)N2 (stereo not drawn)	4.5%
COc1ccc2c(c1)c(CCN1C(=O)c3ccccc3C1=O)cn2C(=O)c1ccco1	42.5%[activator]
CC1=C(C(=O)Nc2ccccc2)C(c2ccc(C)o2)N2C(=O)CSC2=N1 (stereo not drawn)	-7.6%
CN(C1=NC(=O)C(CC(=O)Nc2ccc(Br)cc2)S1)c1ccc(O)cc1 (stereo not drawn)	-19.7%
CCOC(=O)c1[nH]c2ccc(OC)cc2c1NC(=O)c1ccc2c(c1)OCO2	199.7%[activator]
COc1ccc2c(c1)OCC(Cc1ccc(OC)c(O)c1)C2=O (stereo not drawn)	1.7%
CCC(C)(C)NC(=O)CN(C(=O)CNS(=O)(=O)c1ccccc1)c1ccccc1	-3.5%
COc1ccc(OC)c(C(=O)c2ccc(C(=O)N3CCCCC3)cc2)c1	4.2%
CCCC[C@@H]1C[C@H]1C(NC(=O)c1ccccc1)c1ccc(-c2ccccc2)cc1 (stereo partly drawn)	-0.3%
Cc1oc(-c2ccc(Cl)cc2)nc1CS(=O)CC(=O)NCCCN(C)C1CCCCC1 (stereo not drawn)	-18.9%
O=C(NC1CCCCCCC1)c1cnccn1	0.0%
CC1(C)CC(=O)C2=C(C1)NC(SCC(=O)Nc1ccccc1)=C(C#N)C21CCCCC1	31.6µM*
Cc1ccc(-c2csc3nc(C)n(-n4cccc4)c(=O)c23)o1	u
O=S(=O)(NCCC1=CCCCC1)c1cccc2nsnc12	-4.9%
CC(C)C(=O)Nc1ccc(NC(=O)c2cccs2)cn1	1.4%
CCN(CC)CCn1c(OC)cc(=O)[nH]c1=O	5.5%
CCN(CC)C(=O)C1CCCN(C/C(C)=C/c2ccccc2)C1 (stereo not drawn)	4.5%
Cc1nnc(SCC(=O)Nc2cc(C(F)(F)F)ccc2N2CCOCC2)o1	-0.8%
Cc1nc2cc(NC(=O)N3CCN(c4ccccn4)CC3)ccc2o1	31.6µM*
O=c1c2cn[nH]c2nc(SCc2ccc3c(c2)OCCO3)n1-c1ccccc1	2.1%
Cc1ccc(C2C(C#N)=C(N)SC(N)=C2C#N)c(C)c1	15.8µM*
CCc1cccc2c(-c3ccccc3)c3c(nc12)OCC3	31.6µM*
Cc1nc(NC(C)C)c2oc3ccccc3c2n1	5.7%
COc1cc2c(C(=O)c3ccccc3)c3c4c(cc(OC)c(OC)c4c2cc1OC)CCN3C	-3.1%
CSc1ccccc1NC(=O)COc1ccc(S(=O)(=O)N2CCCC2)cc1	-21.0%
CCSc1nnc2c(n1)OC=Nc1ccc(Br)cc1-2	-24.8%
CCc1ccccc1NC(=O)c1cc(-c2cccc(O)c2)on1	4.3%
Cc1ccc(C(=O)N(CC(=O)NC2CCCC2)Cc2cccs2)s1	3.7%
Cc1cc(N2CCN(c3ccccn3)CC2)n2c(nc3ccccc32)c1C#N	u
COC(=O)n1c(=O)oc2cc(S(=O)(=O)N3CCCCC3)ccc21	-0.7%
Cc1cc(Cl)c(S(=O)(=O)NCC2CCCO2)cc1OCC(N)=O (stereo not drawn)	4.2%
COC(=O)Nc1ccc(OCc2ccccc2)cc1	-1.3%
CCC(=O)N1CCN(c2ccc(NC(=O)c3ccco3)cc2)CC1	0.0%
COC(=O)[C@H]1C[C@@H]1[C@H](NC(=O)c1cccnc1)c1ccccc1	3.7%
O=C(NO)C1CC2C=CC1C2 (stereo not drawn)	-0.9%
Cc1ccc(N(C(=O)Cn2nnc(-c3ccc(C)o3)n2)C(C(=O)NC2CCCC2)c2ccco2)cc1 (stereo not drawn)	0.6%
[N-]=[N+]=CC(=O)CNC(=O)[C@@H](Cc1ccccc1)N1C(=O)c2ccccc2C1=O	-4.1%

Remaining list, next part
structure	HSD17B inhib
CC1=NC(C)Cc2ccccc21 (stereo not drawn)	4.3%
COc1ccccc1CN1CCCC2(CCN(C(C)=O)CC2)C1	-0.5%
O=C(CSc1oc(-c2ccco2)nc1S(=O)(=O)c1ccc(Cl)cc1)NCC1CCCO1 (stereo not drawn)	u
CCC(=O)N1CCN(C(C)=O)C1c1ccccc1 (stereo not drawn)	2.0%
COCCOC(=O)C1=C(N)OC2=C(C(=O)CC(C)(C)C2)C1c1cccnc1 (stereo not drawn)	-1.2%
CCOC(=O)c1c(C)n(C)c2ccc(OCC(O)CN3CCN(C)CC3)cc12 (stereo not drawn)	7.5%
CCC(C)N(C(=O)c1csnn1)C(C(=O)NCc1ccc(F)cc1)c1ccco1 (stereo not drawn)	6.0%
COc1ccc2c(Cl)c(-c3nnc(SCC(N)=O)n3C)sc2c1	31.6µM*
Cc1ccc(S(=O)(=O)NC(CC(=O)O)c2ccco2)cc1 (stereo not drawn)	-3.2%
N#Cc1nc(-c2ccco2)oc1NCCN1CCOCC1	u
COc1ccc(S(=O)(=O)CCC(=O)N2CC(=O)N(CCc3ccccc3)C(=O)C2)cc1	-13.1%
CS(=O)(=O)N1CCC2(CCCN(c3ccncc3)C2)CC1	-2.0%
COc1ccc(C(c2sc3ncnn3c2O)N2CC(C)OC(C)C2)cc1OC (stereo not drawn)	-1.5%
Cn1c(=O)c2c(nc(Br)n2CCc2ccccc2)n(C)c1=O	7.0%
N=C(c1ccc2ccccc2c1)c1ccccc1Cc1ccccc1	-2.1%[11.4 µM]
CCCn1c(-c2ccc(F)cc2)nc2c(NCCN3CCSCC3)nc(C)nc21	u
Cc1ccc(C(=O)c2coc3ccc(O)c(CN4CCN(C)CC4)c23)cc1	-11.6%
COc1ccc(NC(=O)c2cc3ccccn3n2)cc1	-0.1%
CN(C)CCCn1c2c3ccccc3ccc2c2oc(=O)c3ccccc3c21	u
Nc1nonc1-c1nc2ccccc2[nH]1	2.9%
CCCS(=O)(=O)N1CCCC(C(=O)N2CCC(Cc3ccccc3)CC2)C1 (stereo not drawn)	5.6%
COC(=O)c1ccc(C)cc1	-19.1%
CC1(C)[C@@H]2CC[C@@]1(CS(=O)(=O)Nc1ccccc1)C(=O)C2	10.8%[11.4 µM]
Cc1cc(NC(=O)CSc2nc(-c3ccccc3)cs2)no1	-5.5%
C1CN(c2nc3nonc3nc2N2CCOCC2)CCO1	2.1%
COc1ccc(-c2noc(CCC(=O)NC3CCCCC3)n2)cc1OC	-1.5%
CCOC(=O)C1CCN(C(=O)CSC2=NCCS2)CC1	0.7%
COc1ccc(OCC(=O)c2c(O)c3ccccc3oc2=O)cc1	-6.6%
COc1ccc(-c2cc(C(=O)Nc3cc(OC)c(OC)c(OC)c3)no2)cc1OC	5.2%
CCN1CCCC1CNC(=O)CSCc1nc(-c2ccccc2C)oc1C (stereo not drawn)	3.7%
Cc1cccc(CN2CCC(CNC(=O)C3CCCN(S(=O)(=O)c4cnc[nH]4)C3)CC2)c1 (stereo not drawn)	9.3%
CCOc1cc2[nH]c(=S)n(CCOC)c(=O)c2cc1OCC	-19.9%
CC(=O)OC[C@@H]1O[C@@H](O/N=C2/C[C@@H](O)[C@@H](O)[C@@H]3[C@@H]4C(=O)N(C[C@@H]5CCCO5)C(=O)[C@H]4CC[C@@H]23)[C@H](OC(C)=O)[C@H](OC(C)=O)[C@@H]1OC(C)=O	3.1%[11.4 µM]
CCn1c(CNC(=O)c2cccs2)nnc1SCC(=O)NCCc1ccccc1	3.1%
CO[C@H]1COC(=O)[C@@H](Cc2ccccc2)NC(=O)[C@@H](C)COC(=O)CCC[C@@H]1C	2.4%[11.4 µM]
O=C(O)c1ccccc1OCCOCCOc1ccccc1C(=O)O	0.1%
CCC(=O)N1C(C(=O)N2CCCC2)CSC1c1ccc(OC)cc1 (stereo not drawn)	-5.5%
COc1ccccc1C1/C(=C(/O)c2ccccc2)C(=O)C(=O)N1CC(C)C (stereo not drawn)	-4.1%
COc1ccc(Nc2nc(CC(C)=O)ns2)cc1OC	0.5%
CC(=O)NC1CC2CCC(C1)N2Cc1ccc(C)cc1 (stereo not drawn)	2.8%
CCOC(=O)N1CCC(N2Cc3cccc(C(=O)NCC4CCN(CC(C)C)C4)c3C2=O)CC1 (stereo not drawn)	-11.1%
Cc1nc(Nc2ccc3c(c2)OCCO3)c2nnn(Cc3ccccc3Cl)c2n1	31.6µM*
Cc1ccc(OCC(=O)NCc2ccco2)cc1C	-11.8%
CC12CC(NC(=O)N1Cc1ccccc1)c1ccccc1O2 (stereo not drawn)	6.7%
c1ccc2c(c1)nc(N1CCOCC1)c1c3ccccc3[nH]c21	-5.9%
O=c1cc(CN2CCN(c3ccccc3)CC2)c2cc(O)c(-c3ccccc3)cc2o1	4.0%
Cc1c(CN2CCC(C)CC2)c(=O)n(-c2ccccc2)n1C	0.5%
CCN(CC)CCNc1nc2c(c(=O)[nH]c(=O)n2C)n1CC(O)COc1ccc(Cl)cc1Cl (stereo not drawn)	-0.8%
COc1ccc(C2(C(=O)O)CCCC2)cc1	14.7%
CC1CN(C(=O)c2ccccc2)OC(c2ccc3c(c2)OCO3)O1 (stereo not drawn)	-11.5%

Later entries
structure	HSD17B inhib
Cc1ccc(-c2nnc(CSc3nncn3N)o2)cc1	-0.1%
CCOc1ccccc1N/C=C/C(=O)C(C)(C)C	-20.5%
CC1CCc2nn(CC(=O)NCc3ccc(F)cc3)cc2C1 (stereo not drawn)	6.3%
COc1ccc(C(=O)N2CCC3(CC2)CN(c2ccccc2)C3)cc1	-0.7%
COc1ccccc1C(=O)N1CCN(C(=O)COc2cccc(C)c2)CC1	12.4%
CCCOC(=O)Nc1ccccc1C(N)=O	11.5%
O=C(Nc1ccccc1Cl)c1ccc2c(c1)N(Cc1ccc(F)cc1)C(=O)CS2=O (stereo not drawn)	-3.8%
CCNC(=O)NC(=O)COC(=O)c1ccccc1SCC(=O)NC(=O)NCC	25.1µM*
CCCS(=O)(=O)C(=C1NCCO1)S(=O)(=O)CCC	2.4%
Cc1nnc(C)n1/N=C/C=C/c1ccccc1	-9.7%
COc1cc2c(C#N)c(N3CCOCC3)nc(N)c2c(N)n1	25.1µM*
c1ccc2c(c1)nc1n2C2(N3CCOCC3)CCCC2C1N1CCOCC1 (stereo not drawn)	u
C=CCn1c(SCC(N)=O)nnc1-c1cc(Br)ccc1O	10.2%
C[C@@H]1CC[C@H]2C(=O)O[C@H](CN=[N+]=[N-])CN2[C@@H]1c1ccc(Br)cc1	5.9%[11.4 µM]
O=C(c1cccc(F)c1)N1CCC2(CC1)CN(c1ccncc1)C2	8.6%
CCOC(=O)NC(Nc1ccc(S(N)(=O)=O)cc1)(C(=O)OCC)C(F)(F)F (stereo not drawn)	-12.3%
Clc1ccc(C(c2nnnn2C2CCCCC2)N(Cc2cccnc2)Cc2ccco2)cc1 (stereo not drawn)	-0.6%
COC(=O)Cn1ncn2cccc2c1=O	9.6%
O=C(CC1SCCNC1=O)Nc1cc(Cl)cc(Cl)c1 (stereo not drawn)	-3.8%
CC(=O)OC[C@@H]1O[C@@H](O/N=C2/C[C@@H](O)[C@@H](O)[C@@H]3[C@H]4C(=O)N(c5ccc(F)cc5F)C(=O)[C@@H]4CC[C@@H]23)[C@H](OC(C)=O)[C@H](OC(C)=O)[C@@H]1OC(C)=O	1.7%[11.4 µM]
COc1ccc(CC(=O)Nc2ccc(-c3nnc(-c4ccccc4)o3)cc2)cc1OC	-26.0%
COc1cc(-n2cnnn2)ccc1S(=O)(=O)N1CCOCC1	-3.4%
FC(F)(F)c1ccccc1-c1ccc2ncnc(NCc3cccnc3)c2c1	0.2%
Cc1cn(S(=O)(=O)c2ccc(Br)c3ccccc23)cn1	2.6%
CCOC(=O)c1[nH]cnc1C(=O)NC1CCCCC1	5.8%
Cc1nnc(Nc2ccc(C(=O)NCCO)cc2)c2ccccc12	-2.4%

High-throughput results from PubChem.
